HIV Env fusion: inhibitors of HIV-1 Env-driven cell-cell fusion, primary screen, HeLa-JRFL effector, CEM21 target cells, luciferase; inhibition, % at 12.3 µM; 360,000 compounds, 1.1% hits; AID 651610, 2012;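 active = mean replicate inhibition score of at least 50 and every replicate individually at or above 50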;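 note: 0% = plate neutral controls and 100% = maraviroc near 300 nM; one replicate is shown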
MT1-MMP act inh: blockers of MT1-MMP proenzyme processing, primary screen, HT1080 RFP-PRO-GFP cells, GFP/RFP fluorescence. Matrix metalloproteinase-14 (Homo sapiens), P50281. GFP/RFP ratio fluorescence, overnight; percent of plate control window, DMSO zero. GFP/RFP ratio change, % at 20 µM. 360,000 compounds, 0.061% hits. AID 651647, 2012;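 active = GFP/RFP ratio change of at least 30% with cell ATP level not reduced by more than half and red fluorescence within 50% of control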; note: strong numbers were not always called active
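Assay system: HT1080 cells carrying an RFP-PRO-GFP reporter | Dosing: Single dose of 20 µM compound, 1% DMSO final | Incubation: Cells overnight before dosing, compound overnight, 37 °C, 5% CO2 | Evaluation: GFP/RFP fluorescence ratio | Control set: DMSO and RFP-L50D-GFP cell wells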
UUG fidelity: modulators of yeast start codon fidelity, primary screen, whole organism, S. cerevisiae, single point, plate reader. S. cerevisiae UUG-firefly luciferase reporter, luminescence/redox ratio. activity score, % at 18.7 µM. 350,000 compounds, 0.13% hits;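 active = replicate mean at a twofold rise or more, about +100% in these data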;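 note: firefly luciferase made from a UUG start codon reports start codon fidelity; reporter light over untreated wells divided by growth signal over untreated wells; some hits fall short of that in this replicate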
MT1-MMP act inh RFP: further read-out of MT1-MMP act inh, marked with its call; RFP signal change, %; measured here: RFP expression control read;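 0 = vehicle wells; hits needed this value within 50% of zero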
Numbers without * were called inactive; · = not tested or not shown. Only part of the results is shown (hit frequency here may not be typical).

Every second line gives: HIV Env fusion | MT1-MMP act inh | MT1-MMP act inh RFP | UUG fidelity
[1] Cc1ccc(OCCC(=O)NNC(=O)c2nn(C)c(=O)c3ccccc23)cc1
    · | -3 | -4 | -13
[2] C[C@H]([C@@H](O)[C@@H](O)[C@@H](C)C(C)(C)C)[C@H]1CC[C@H]2C3CC[C@H]4C[C@H](OS(=O)(=O)O)[C@@H](OS(=O)(=O)O)C[C@]4(C)[C@H]3CC[C@]12C (stereo partly specified)
    · | -5 | -2 | 28
[3] CCOC(=O)[C@H]1[C@H]2COc3ccc(Cl)cc3[C@@H]2N2C(=O)[C@H](C)NC(=O)[C@@]12C
    · | 1 | 2 | -16
[4] O=c1[nH]cnc(O)c1Nc1cccc(Cl)c1
    · | 2 | 4 | -7
[5] COc1ccccc1C(=O)Nc1ccc(OCC(=O)N2CC(C)CC(C)C2)cc1 (stereo unspecified)
    · | 2 | -4 | -5
[6] CCc1ccc(CN2CCC(Oc3cc(C(=O)NC4CC4)ccc3OC)CC2)cc1
    · | 1 | 2 | -29
[7] CCCCN(CCCC)Cc1cc(=O)oc2ccccc12
    · | 3 | 5 | -8
[8] Cc1ccc(C(=O)OCC(=O)Nc2cccc(S(=O)(=O)N3CCCCC3)c2)o1
    · | 7 | 0 | -14
[9] O=C(CN1C(=O)NC2(CCCCCCC2)C1=O)NCc1ccccc1Cl
    · | 3 | -2 | -21
[10] Brc1ccc2nc(C3CCCCC3)c(Cc3ccccc3)n2c1
    · | -3 | -1 | -5
[11] Cc1ccc(CONC(=O)c2ccc(Cl)cc2)cc1
    · | -3 | -1 | -11
[12] CC1CC(C)(C)CC2(C1)NC(=O)N(CC(=O)N(C)Cc1nc3ccccc3c(=O)[nH]1)C2=O (stereo unspecified)
    · | -2 | 2 | -3
[13] CC[C@H](C)[C@H](NC(=O)OCc1ccccc1)C(=O)OCC(=O)N1CCN(c2ccc(OC)cc2)CC1
    · | 7 | -14 | -1
[14] O=[N+]([O-])c1ccc(NN=Cc2cccc([N+](=O)[O-])c2)cc1
    · | -6 | -11 | -17
[15] Cc1ccc(C(=O)NCC(=O)OCn2nnc3ccccc3c2=O)cc1
    · | -1 | 6 | -8
[16] N#Cc1ccccc1OCC(=O)N1N=C(c2cccs2)CC1c1ccco1 (stereo unspecified)
    · | 2 | 0 | -5
[17] Cc1ccc(-c2nc3cc(C)c(Br)c(C)n3c2Cc2ccccc2)cc1
    · | -1 | -2 | -6
[18] CC(NC(=O)CN(C)S(=O)(=O)c1ccc(F)cc1)C1CC2CCC1C2 (stereo unspecified)
    · | 1 | 2 | 3
[19] CCCN(CC(=O)Nc1ccccc1OC)C(=O)c1ccc2ncsc2c1
    · | 5 | 0 | -1
[20] Cc1cccc(-c2c3c(=O)n(C)c(=O)n(C)c3c3nnc4ccccc4n23)c1
    · | -79 | 2 | -6

Complete entries as entered above:
O=C(CN1C(=O)NC2(CCCCCCC2)C1=O)NCc1ccccc1Cl across the screens: HIV Env fusion: ·; MT1-MMP act inh: 3; MT1-MMP act inh RFP: -2; UUG fidelity: -21
Cc1cccc(-c2c3c(=O)n(C)c(=O)n(C)c3c3nnc4ccccc4n23)c1 across the screens: HIV Env fusion: ·; MT1-MMP act inh: -79; MT1-MMP act inh RFP: 2; UUG fidelity: -6

Remaining list, next part:
Every second line gives: HIV Env fusion | MT1-MMP act inh | MT1-MMP act inh RFP | UUG fidelity
[21] CC(OC(=O)[C@@H](NC(=O)OCc1ccccc1)C(C)C)C(=O)Nc1ccc(N2CCOCC2)cc1 (stereo partly specified)
    · | -1 | 3 | 8
[22] CCCc1nc2ccc(C)cn2c1Cc1cccc(Cl)c1
    · | 2 | -3 | 43
[23] CC1=Nc2ccccc2/C1=C/c1c(C)[nH]c2ccccc12
    · | -1 | -5 | -2
[24] CC(NC(=O)CN(C)CC(=O)Nc1cccc(F)c1)c1ccccc1 (stereo unspecified)
    · | 0 | 0 | 3
[25] CC(C)(C)N(Cc1ccccc1)C(=O)COC(=O)CCN1C(=O)C2CC=CCC2C1=O (stereo unspecified)
    · | -3 | -2 | -75
[26] CC(=O)NC(c1cccs1)c1cc(Br)c2cccnc2c1O (stereo unspecified)
    · | 2 | -3 | -18
[27] O=C(Nc1cc(Cl)ccc1-n1cncn1)c1ccccc1OC(F)F
    · | -1 | 0 | -11
[28] COc1cccc(-c2cnc(C(O)c3ccc(C)cc3)[nH]2)c1 (stereo unspecified)
    · | -1 | -3 | -11
[29] CC(=O)c1ccccc1NC(=O)COC(=O)C1COc2ccccc2O1 (stereo unspecified)
    · | -1 | 4 | -12
[30] COc1ccc(CNc2ccc(N3CCN(C(C)=O)CC3)cc2)cc1OC
    · | 7 | -3 | -29
[31] COc1ccc(CN2CCC[C@]3(N[C@H](c4ccc(OC)cc4)[C@@H]4C(=O)N(Cc5ccccc5)C(=O)[C@@H]43)C2=O)cc1
    · | 4 | -1 | 6
[32] CN(CC(=O)Nc1ccccc1Br)C(=O)c1ccccc1OCc1ccc(F)cc1
    · | 1 | 1 | -6
[33] CCN1C(=O)C(C)C=C(C)C=C1C (stereo unspecified)
    · | 1 | 3 | -6
[34] O=C(NNC1CCN(Cc2ccccc2)CC1)c1ccccc1
    · | 0 | 2 | -15
[35] CN(CC(=O)Nc1ccccc1Br)C(=O)COc1ccc2ccccc2c1
    · | -2 | 3 | -5
[36] CCCCn1c(N)c(N(C)C(=O)c2ccc(Br)o2)c(=O)[nH]c1=O
    · | -3 | 0 | -8
[37] CCOC(=O)C1=CCN(S(=O)(=O)c2ccccc2C)C1c1cccc(C)c1 (stereo unspecified)
    · | 3 | -2 | -13
[38] COC(=O)C1=CN(c2ccc(F)cc2)C(N)=C(C#N)C1c1ccccc1 (stereo unspecified)
    37 | -2 | -2 | ·
[39] CC1(C(=O)NCc2ccccc2Br)CCN1Cc1ccc(-c2ccccc2)o1 (stereo unspecified)
    45 | -2 | -9 | ·
[40] O=C1NC[C@@H](CCCCN2C[C@H](Cc3ccccc3)N(CC3CCCCC3)C(=O)C2=O)N(Cc2ccccc2)C1=O
    -27 | 10 | 6 | ·
[41] COP(=O)(OC)OC(C(=O)c1ccccc1)c1ccc(Cl)cc1 (stereo unspecified)
    -23 | -3 | 5 | ·
[42] CC(C)C12NC(=O)NC(=O)N1CCS2 (stereo unspecified)
    9 | -3 | 7 | ·
[43] COCCN1C(=O)CSCC1(C)C(=O)NC(C)C (stereo unspecified)
    8 | 0 | 4 | ·
[44] FC(F)(F)C1=NNC(c2ccc3ccccc3c2)=NN1
    4 | -3 | 1 | ·
[45] O=C(NC1CCCC1)C(C1CC1)n1c(C2CC2)nc2ccccc21 (stereo unspecified)
    -7 | 4 | 6 | ·
[46] CC1(C(=O)NS(=O)(=O)c2cccs2)CCN1C(=O)C1(c2ccc(Cl)cc2)CC1 (stereo unspecified)
    -14 | 3 | 13 | ·
[47] COC1=CC(=O)OC(c2ccccc2C(F)(F)F)C1 (stereo unspecified)
    -7 | 1 | 5 | ·
[48] CCOC(=O)[C@]12CCC=C1N(CCC1=CCCCC1)C(=O)[C@H](CC(=O)N1CCSCC1)C2
    5 | 0 | 4 | ·
[49] CCCn1c(SCC(=O)Nc2ccccc2Cl)nc(O)cc1=O
    4 | -3 | 0 | ·
[50] COc1ccc(OC)c2nc3c(C(=O)NCCN(C)C)cccc3nc12
    27 | 14 | 13 | ·
[51] COc1ccc(N2C(=O)c3ccccc3NC(=O)C2C(=O)NCCc2ccccc2F)cc1 (stereo unspecified)
    58* | 2 | 5 | ·
[52] CCOC(=O)[C@]12CCCC=C1N(Cc1ccc3c(c1)OCO3)C(=O)[C@H](CC(=O)N1CCN(C(=O)c3ccco3)CC1)C2
    11 | -3 | 1 | ·
[53] O=C(Nc1cc([N+](=O)[O-])c2[nH]c(=O)c3ccccc3c2c1)C(F)(F)F
    -9 | 7 | -4 | ·
[54] COc1ccc(CCN2C(=O)c3ccccc3C2c2nnnn2-c2c(C)cccc2C)cc1OC (stereo unspecified)
    45 | 1 | 2 | ·
[55] CCOC(=O)[C@]12CCC=C1N(Cc1cccc3ccccc13)C(=O)[C@H](CC(=O)NCc1ccc(C)o1)C2
    -15 | 6 | -5 | ·
[56] COc1ccc(CNC(=O)C(C)N2C(=O)NC3(CCCCCCC3)C2=O)cc1 (stereo unspecified)
    18 | -4 | 1 | ·
[57] CC(=O)N1CCC(C(=O)N2c3ccccc3N=C(c3ccc4c(c3)OCO4)C2C(=O)NCc2ccccc2)CC1 (stereo unspecified)
    -4 | 6 | 1 | ·
[58] CC(c1nc2ccccc2n1Cc1ccccc1)n1c(-c2cnccn2)nc2ccccc21 (stereo unspecified)
    -2 | -8 | -3 | ·
[59] CCOC(=O)[C@]12CCC=C1N(Cc1ccc(Cl)cc1Cl)C(=O)[C@H](CC(=O)NCCC(C)C)C2
    10 | -6 | -14 | ·
[60] CCCCNC(=O)C1c2ccccc2OCC(=O)N1Cc1cccnc1 (stereo unspecified)
    -7 | 1 | 0 | ·

Printed as active in HIV Env fusion, of those listed so far:
Every second line gives: HIV Env fusion | MT1-MMP act inh | MT1-MMP act inh RFP | UUG fidelity
[51] COc1ccc(N2C(=O)c3ccccc3NC(=O)C2C(=O)NCCc2ccccc2F)cc1 (stereo unspecified)
    58* | 2 | 5 | ·

The results go on:
Every second line gives: HIV Env fusion | MT1-MMP act inh | MT1-MMP act inh RFP | UUG fidelity
[61] CC1(C(=O)NS(=O)(=O)c2ccc(Cl)cc2)CCN1C(=O)CCC1CCCC1 (stereo unspecified)
    -1 | 0 | 5 | ·
[62] Cn1cc(C2NC(=O)c3ccccc3N2)c2ccccc21 (stereo unspecified)
    4 | 2 | -3 | ·
[63] COC(=O)[C@@]12C[C@@H](CC(=O)NCc3ccc(C)o3)C(=O)N(Cc3ccco3)C1=CCC(C)(C)C2
    -19 | 0 | 1 | ·
[64] CCCCNC(=O)c1nc(-c2cc3ccccc3[nH]2)oc1-c1ccccc1
    -2 | -2 | -7 | ·
[65] CCOC(=O)[C@]12CCCC=C1N(CCc1ccc(OC)c(OC)c1)C(=O)[C@H](CC(=O)NCCCCc1ccccc1)C2
    -32 | -4 | -9 | ·
[66] O=C(NC1CCCC1)C(c1ccccc1)n1c(-c2cccs2)nc2ccccc21 (stereo unspecified)
    30 | 1 | 0 | ·
[67] CCOc1cc(OCC)cc(C(=O)N2CCC[C@H]2C(=O)N2CCC[C@H]2C(=O)NCc2ccc(F)cc2F)c1
    4 | 8 | 8 | ·
[68] CC(CC(=O)c1ccc(F)cc1)N1CCN(c2ccccc2)CC1 (stereo unspecified)
    6 | -3 | -2 | ·
[69] CCCCNc1c(CC(C)C)nc2nc(C)cc(C)n12
    -3 | 2 | 0 | ·

Molecules from the list above with a thiophene ring, fused or not (four):
Every second line gives: HIV Env fusion | MT1-MMP act inh | MT1-MMP act inh RFP | UUG fidelity
[16] N#Cc1ccccc1OCC(=O)N1N=C(c2cccs2)CC1c1ccco1 (stereo unspecified)
    · | 2 | 0 | -5
[26] CC(=O)NC(c1cccs1)c1cc(Br)c2cccnc2c1O (stereo unspecified)
    · | 2 | -3 | -18
[46] CC1(C(=O)NS(=O)(=O)c2cccs2)CCN1C(=O)C1(c2ccc(Cl)cc2)CC1 (stereo unspecified)
    -14 | 3 | 13 | ·
[66] O=C(NC1CCCC1)C(c1ccccc1)n1c(-c2cccs2)nc2ccccc21 (stereo unspecified)
    30 | 1 | 0 | ·

Fetched by compound from the entries so far, six records:
Every second line gives: HIV Env fusion | MT1-MMP act inh | MT1-MMP act inh RFP | UUG fidelity
[67] CCOc1cc(OCC)cc(C(=O)N2CCC[C@H]2C(=O)N2CCC[C@H]2C(=O)NCc2ccc(F)cc2F)c1
    4 | 8 | 8 | ·
[69] CCCCNc1c(CC(C)C)nc2nc(C)cc(C)n12
    -3 | 2 | 0 | ·
[62] Cn1cc(C2NC(=O)c3ccccc3N2)c2ccccc21 (stereo unspecified)
    4 | 2 | -3 | ·
[63] COC(=O)[C@@]12C[C@@H](CC(=O)NCc3ccc(C)o3)C(=O)N(Cc3ccco3)C1=CCC(C)(C)C2
    -19 | 0 | 1 | ·
[65] CCOC(=O)[C@]12CCCC=C1N(CCc1ccc(OC)c(OC)c1)C(=O)[C@H](CC(=O)NCCCCc1ccccc1)C2
    -32 | -4 | -9 | ·
[68] CC(CC(=O)c1ccc(F)cc1)N1CCN(c2ccccc2)CC1 (stereo unspecified)
    6 | -3 | -2 | ·
